D2 agonist: Beta-Arrestin HTS for Positive Allosteric Modulators of the Human D2 Dopamine Receptor: Agonists | D(2) dopamine receptor (Homo sapiens), P14416 | DiscoveRx PathHunter D2 beta-arrestin, luminescence, 90 min; 100% = 57 uM dopamine signal | activation, % (test concentration not listed) | 360,000 compounds, 0.084% hits; in the data active = activation above about 40%; inconclusive = about 15% to 40%; inactive = below about 15%; also: compound concentration not given in the record; the text of the record calls up to 30% inactive
Target sequence (P14416 whole entry, looked up): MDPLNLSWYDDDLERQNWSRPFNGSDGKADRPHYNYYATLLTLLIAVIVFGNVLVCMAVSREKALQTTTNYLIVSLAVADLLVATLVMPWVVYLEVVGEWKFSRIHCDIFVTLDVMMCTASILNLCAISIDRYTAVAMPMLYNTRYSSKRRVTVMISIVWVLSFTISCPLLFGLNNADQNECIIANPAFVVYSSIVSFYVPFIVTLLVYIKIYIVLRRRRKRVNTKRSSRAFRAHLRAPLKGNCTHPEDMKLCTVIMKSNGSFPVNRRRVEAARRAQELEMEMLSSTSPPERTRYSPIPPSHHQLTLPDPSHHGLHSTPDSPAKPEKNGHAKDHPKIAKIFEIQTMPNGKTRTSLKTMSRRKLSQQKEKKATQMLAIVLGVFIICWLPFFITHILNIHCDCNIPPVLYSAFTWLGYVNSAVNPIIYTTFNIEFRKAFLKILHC
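DiscoveRx PathHunter D2 beta-arrestin cells (2,100/well) attached overnight, then compound-stimulated 90 min at 37 C in HBSS/10 mM HEPES/0.1% Tween-20 buffer; beta-galactosidase complementation read by luminescence after 1 h at ambient temperature. Dopamine 57 uM final (EC100) as control.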
PINK1 expr mod: A Quantitative High throughput Screen to Identify Chemical Modulators of PINK1 Expression; PINK1 immunofluorescence, high-content cytometry, 24 h; Potency, µM (highest dose often 76.6 µM), for the others: at the top dose activation (PINK1 increase), hits mostly activators; AID 624263, 2012; 410,000 compounds, 0.2% hits; active = well fitted activation curve with a large enough effect; inconclusive = small, poorly fitted or top-dose-only effect; inactive = flat fitted curve, though single readings scatter; cell line not stated here;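 also: potency is read from the fitted curve at half-maximal effect; % of control where 0% means no effect; nearly all actives have a fitted effect of over 65% in size; a mitochondrial uncoupler was the plate control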
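Decision-based qHTS: stable cells, 24 h exposure to five compound concentrations, CCCP as control. Fixed cells stained for PINK1 plus nuclear, mitochondrial and cell markers, cytometer read.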
TRPML1 ag: qHTS for Agonists of the Human Mucolipin Transient Receptor Potential 1 (TRPML1); Mucolipin-1 (Homo sapiens), Q9GZU1; TRPML1-expressing cells, Ca2+ dye fluorescence, FDSS; host cell line not named in the record; reference of the full effect not given here; activation, % (test concentration not listed); 410,000 compounds, 0.12% hits; in the data active = activation above about 50%; inconclusive = about 30% to 50%; inactive = below about 30%; also: 0% is about no effect; the text of the record puts the active cut at 80%
Target sequence (Q9GZU1 whole entry, looked up): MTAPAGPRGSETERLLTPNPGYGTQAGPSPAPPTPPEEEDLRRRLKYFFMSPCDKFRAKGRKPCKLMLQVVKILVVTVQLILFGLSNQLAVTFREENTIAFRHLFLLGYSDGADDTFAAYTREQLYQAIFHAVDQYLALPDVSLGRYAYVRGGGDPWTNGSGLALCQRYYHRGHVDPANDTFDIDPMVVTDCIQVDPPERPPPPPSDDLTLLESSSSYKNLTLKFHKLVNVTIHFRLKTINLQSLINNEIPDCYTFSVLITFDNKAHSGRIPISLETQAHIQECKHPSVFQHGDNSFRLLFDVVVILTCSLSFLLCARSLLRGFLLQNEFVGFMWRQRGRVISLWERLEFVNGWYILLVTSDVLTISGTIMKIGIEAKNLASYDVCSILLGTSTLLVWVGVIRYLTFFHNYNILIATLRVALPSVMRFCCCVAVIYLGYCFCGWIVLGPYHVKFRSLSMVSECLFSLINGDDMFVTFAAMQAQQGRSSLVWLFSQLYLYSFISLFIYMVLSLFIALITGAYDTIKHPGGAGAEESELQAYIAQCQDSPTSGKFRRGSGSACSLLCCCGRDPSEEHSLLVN
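Calcium fluorescence on an FDSS kinetic reader gave the read-out. Tet-induced TRPML1-DL cells were plated overnight, dye-loaded (Ca8 with quencher, 45-90 min, room temperature, dark), then read 110 s after compound addition, and again 110 s after 4uM final 54-4 (EC80).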
Starred values were filed as active, the others as inactive; · = not tested or not shown. These rows are one share of the data (hit frequency here may not be typical).

SMILES	D2 agonist	PINK1 expr mod	TRPML1 ag
COC(=O)C1=C[C@@H](C(=O)OC)C2C3=C(C(=O)[C@@]2(C)NC(=O)c2ccccc2)[C@H](C)[C@@H]2C(=O)NC(=O)[C@@H]2[C@@H]3C1 (stereo partly drawn)	·	·	0.7
Cc1ccc(-c2ccc(C3C4C=CCC(C)C4C(=O)N3Cc3ccccc3)c(F)c2)cc1 (stereo not drawn)	·	·	1.5
CC1(C)S[C@@H]2[C@H](NC(=O)COc3ccccc3)C(=O)N2[C@@H]1C(=O)OCc1cccc2cccnc12	·	·	-0.5
COC(=O)C1CC1[C@H](NC(=O)c1cccnc1)c1ccccc1 (stereo partly drawn)	·	·	1.0
CC(=O)c1ccc[n+](CC(=O)c2ccc(F)cc2)c1	·	·	-0.5
CN(C)c1ccc(CCC2C=Cc3ccccc32)cc1 (stereo not drawn)	·	·	-0.3
NC(=O)Nc1ccc(/C=C2\C=Cc3ccccc32)cc1	·	·	-0.7
CC1CC=CC2C1C(=O)N(Cc1ccccc1)C2c1ccc(F)c(Br)c1 (stereo not drawn)	·	·	1.6
CC(=O)O[C@@H]1[C@@H](O)CN[C@@H]1Cc1ccccc1	·	·	0.6
COC(=O)/C=C/c1cc(F)ccc1S(=O)(=O)Nc1ccccc1	·	·	-0.5
C(=C\c1cccs1)/c1ccccn1	·	·	-0.4
CCN(CC)c1ccccc1/C=C/[n+]1ccc(CCCCI)c2ccccc21	·	·	0.5
COc1ccc(SCC(CC(C)C)N2CCN(CCc3ccccc3)CCC2=O)cc1 (stereo not drawn)	·	·	1.0
CC(C)[C@H](/C=C/C[Si](C)(C)C)[C@H](C)C(O)/C=C/CCCOC(=O)C(C)(C)C (stereo partly drawn)	·	·	0.0
CN(C)c1ccc(/C=C/c2ccnc3ccccc23)cc1[N+](=O)[O-]	·	·	-0.8
Cc1nc2ccccc2nc1/C=C/c1ccc(N(C)C)cc1	·	·	14
CCCN1CCC(=O)N(C(CSc2ccc(OC)cc2)c2ccccc2)CC1 (stereo not drawn)	·	·	0.1
COC(=O)[C@@H]1N2C(=O)[C@@H](NC(=O)C(C)Oc3ccccc3)[C@H]2SC1(C)C (stereo partly drawn)	·	·	-0.5
COC(=O)C1=C[C@@H](C(=O)OC)C2C3=C(C(=O)[C@@]2(CC(C)C)NC(=O)c2ccccc2)[C@H](C)n2c(=O)n(C)c(=O)n2[C@@H]3C1 (stereo partly drawn)	·	·	1.1
CC1CC=CC2C1C(=O)N(Cc1ccccc1)C2c1ccc(-c2ccc(F)cc2)cc1F (stereo not drawn)	·	·	0.7
Cc1ccc(SCC(c2ccccc2)N2CCN(CCc3ccccc3)CCC2=O)cc1 (stereo not drawn)	·	·	0.4
CC1=C(C(=O)OCc2ccccc2)N2C(=O)[C@@H](NC(=O)OCc3ccccc3)[C@H]2SC1	·	·	0.2
COc1cc(OC)c2c(c1C(CCN1CCCC(C)C1)c1ccc(N(C)C)cc1)OC(=O)CC2c1ccc(N(C)C)cc1 (stereo not drawn)	·	·	0.4
CC(=O)c1ccc(C(=O)Nc2sc3c(c2C(N)=O)CCN(Cc2ccccc2)C3)cc1	2.3	·	·
CN(C)CCCNS(=O)(=O)c1ccc(N2CCC(c3ccc(Cl)cc3)=N2)cc1	7.7	·	·
Cn1c(=O)oc2cc(S(=O)(=O)NC(CC(=O)O)c3cccc(Br)c3)ccc21 (stereo not drawn)	·	-1.7%	-0.1
CCN1CCN(CCCNC(=O)c2cc3c(=O)n(CC)c4ccccc4c3s2)CC1	·	1.3%	-0.6
CCOc1ccc(C(=O)NCC(c2ccc3c(c2)OCO3)N2CCN(c3ccccc3F)CC2)cc1 (stereo not drawn)	·	-1.1%	1.9
Cc1cccc(C(=O)OCc2cc(=O)n3nc(C4CC4)sc3n2)c1	·	1.0%	-0.3
Cc1ccc(-n2ncc3c(Nc4ccc5c(c4)OCCO5)ncnc32)cc1Cl	·	2.5%	0.3
CCN(CC)c1nc2ccccc2nc1C(=O)Nc1cccc(C(C)=O)c1	·	7.1%	2.8
COc1ccc(NC(=O)N2CCc3c(sc4c3CCCC4)C2c2ccc(F)cc2)cc1 (stereo not drawn)	·	-0.3%	0.4
Cc1ccccc1Cn1c(=O)n(Cc2ccco2)c(=O)c2oc3ccccc3c21	·	-1.4%	2.3
NCCCN(Cc1ccc(Cl)c(Cl)c1)c1ccccn1	·	0.7%	0.7
CCOC(=O)c1ccc(CN(Cc2ccc(F)cc2)S(=O)(=O)c2ccc(F)c(C(=O)Nc3c(C)cccc3C)c2)cc1	·	0.8%	1.3
CCn1cc(C(=O)OCC(=O)Nc2cc(C)cc(C)c2)c(=O)c2ccc(C)nc21	·	-0.8%	-0.6
CC(=O)N1c2ccccc2C(=O)C1N1CCN(c2cccc(C)c2C)CC1 (stereo not drawn)	·	0.1%	0.1
CNC(=O)CN1C(=O)COc2ccc(S(=O)(=O)N3CCC(C)CC3)cc21	·	-1.2%	2.1
CCOc1ccc(C(=O)NCC(c2ccc(Cl)cc2)N2CCCCC2)cc1 (stereo not drawn)	·	1.7%	-0.4
COc1cc(C(=O)Nc2cc(C)c(O)c(-c3nc4cc(Cl)ccc4o3)c2)cc(OC)c1OC	·	19%	1.2
Cc1cccc(N2C(=O)CSC23C(=O)N(CC(=O)NCc2ccccc2Cl)c2ccccc23)c1 (stereo not drawn)	·	-5.3%	1.4
O=C(COCc1cc(-c2ccc3c(c2)OCO3)on1)Nc1cc(Cl)ccc1O	·	0.7%	0.4
COc1ccc(NC(=O)c2cc(C(C)=O)n3ccccc23)cc1	·	-0.6%	-0.9
CCOC(=O)CSc1nc2c(sc3ccccc32)c(=O)n1CCc1ccccc1	·	2.2%	-0.2
COc1ccc(NC(=O)CN(Cc2ccccc2)S(=O)(=O)c2ccc3nc(C)sc3c2)cc1	·	1.0%	2.9

2 neighbouring compounds out of the list so far, for reference:
SMILES	D2 agonist	PINK1 expr mod	TRPML1 ag
CCN(CC)c1nc2ccccc2nc1C(=O)Nc1cccc(C(C)=O)c1	·	7.1%	2.8
COc1ccc(NC(=O)N2CCc3c(sc4c3CCCC4)C2c2ccc(F)cc2)cc1 (stereo not drawn)	·	-0.3%	0.4

16 neighbouring records already listed, quoted:
SMILES	D2 agonist	PINK1 expr mod	TRPML1 ag
Cc1ccc(-n2ncc3c(Nc4ccc5c(c4)OCCO5)ncnc32)cc1Cl	·	2.5%	0.3
CCN(CC)c1nc2ccccc2nc1C(=O)Nc1cccc(C(C)=O)c1	·	7.1%	2.8
COc1ccc(NC(=O)N2CCc3c(sc4c3CCCC4)C2c2ccc(F)cc2)cc1 (stereo not drawn)	·	-0.3%	0.4
Cc1ccccc1Cn1c(=O)n(Cc2ccco2)c(=O)c2oc3ccccc3c21	·	-1.4%	2.3
NCCCN(Cc1ccc(Cl)c(Cl)c1)c1ccccn1	·	0.7%	0.7
CCOC(=O)c1ccc(CN(Cc2ccc(F)cc2)S(=O)(=O)c2ccc(F)c(C(=O)Nc3c(C)cccc3C)c2)cc1	·	0.8%	1.3
CCn1cc(C(=O)OCC(=O)Nc2cc(C)cc(C)c2)c(=O)c2ccc(C)nc21	·	-0.8%	-0.6
CC(=O)N1c2ccccc2C(=O)C1N1CCN(c2cccc(C)c2C)CC1 (stereo not drawn)	·	0.1%	0.1
CNC(=O)CN1C(=O)COc2ccc(S(=O)(=O)N3CCC(C)CC3)cc21	·	-1.2%	2.1
CCOc1ccc(C(=O)NCC(c2ccc(Cl)cc2)N2CCCCC2)cc1 (stereo not drawn)	·	1.7%	-0.4
COc1cc(C(=O)Nc2cc(C)c(O)c(-c3nc4cc(Cl)ccc4o3)c2)cc(OC)c1OC	·	19%	1.2
Cc1cccc(N2C(=O)CSC23C(=O)N(CC(=O)NCc2ccccc2Cl)c2ccccc23)c1 (stereo not drawn)	·	-5.3%	1.4
O=C(COCc1cc(-c2ccc3c(c2)OCO3)on1)Nc1cc(Cl)ccc1O	·	0.7%	0.4
COc1ccc(NC(=O)c2cc(C(C)=O)n3ccccc23)cc1	·	-0.6%	-0.9
CCOC(=O)CSc1nc2c(sc3ccccc32)c(=O)n1CCc1ccccc1	·	2.2%	-0.2
COc1ccc(NC(=O)CN(Cc2ccccc2)S(=O)(=O)c2ccc3nc(C)sc3c2)cc1	·	1.0%	2.9

Further results follow:
SMILES	D2 agonist	PINK1 expr mod	TRPML1 ag
Cc1cc(=O)n(C(C)C(=O)NCc2ccccc2Cl)c2c1c(C)nn2-c1ccccc1 (stereo not drawn)	·	0.7%	1.8
COc1ccccc1Cc1nc2ccccc2nc1SCC(=O)NCCc1ccccc1	·	-0.7%	2.7
COc1ccc(C(=O)c2sc(Nc3cc(Cl)ccc3C)nc2N)cc1OC	·	0.4%	-0.7
CCN(CC)S(=O)(=O)c1ccc2c(c1)c(=O)c(C(=O)NCc1ccccc1)cn2C	·	1.5%	-1.0
CCN(CC)CCN(C(=O)c1ccco1)c1nc2ccc(F)cc2s1	·	4.6%	1.2
COc1cccc(-c2nnc3n(Cc4ccc(C)cc4)c(=O)c4ccccc4n23)c1O	·	1.4%	-1.1
COc1ccc(OC)c(-n2c3c(cc(-c4nc(-c5ccc(Cl)cc5)cs4)c2=O)C(=O)CC(C)(C)C3)c1	·	0.8%	-0.2
CCOC(=O)c1c(-c2ccc(C)cc2)csc1NC(=O)c1cc(-c2ccc(Cl)cc2)on1	·	0.6%	-0.7
CCOC(=O)CCn1nc(C)c2c(C)n(-c3ccccc3)nc2c1=O	·	0.3%	0.3
Cc1cccc(OCc2ccc(-c3nc(C#N)c(NCCN(C)C)o3)o2)c1	·	0.0%	-0.2
Cc1noc(-c2ccc(NCc3ccccc3)c([N+](=O)[O-])c2)n1	·	9.0%	-1.0
CCc1ccc2occ(CC(=O)Nc3c(C(=O)c4ccccc4)oc4ccccc34)c2c1	·	-0.8%	2.5
Cc1ccc2oc(-c3ccc(NC(=O)c4oc5ccc(Cl)cc5c4C)cc3)nc2c1	·	-0.1%	-0.3
Cc1cc(C)cc(NC(=O)CCc2c(C)nc3c(c2C)c(=O)n(C)c(=O)n3C)c1	·	2.0%	-0.4
COC(=O)c1ccc(Cn2c(=O)cc(C(F)(F)F)c3c(C)nn(C)c32)cc1	·	2.0%	1.3
CC(C)C(=O)NCC1(N(C)C)CCCCC1	·	1.4%	-0.4
CCc1ccccc1NC(=O)Cc1ccc(-n2c(C)nc3cccnc32)cc1	·	1.3%	0.5
COc1ccc(C(NC(C)=O)c2ccc3cccnc3c2O)cc1OC (stereo not drawn)	·	-0.1%	0.2
CCOc1ccccc1C(=O)NCc1nc2cccnc2n1Cc1ccc(C)cc1	·	-1.1%	2.3
COc1ccccc1/C=C/c1cnccn1	·	0.9%	-1.0
COc1ccc(NC(=O)Cn2c(=O)c3ccccc3n3nncc23)c(OC)c1	·	2.7%	-0.5
CNc1c(Br)cc(C=O)cc1Br	·	0.7%	-0.9
COc1ccc(Nc2cc(C(=O)NCc3cccs3)c3ccccc3n2)cc1	·	0.9%	2.9
COc1ccccc1/C=C/c1nc(C#N)c(NC2CCCCC2)o1	·	0.0%	2.2
Cc1cccc2c1-c1sc(C(=O)NCCc3ccc(Cl)cc3)cc1CO2	·	5.0%	0.6
CCc1nn(Cc2ccc(Cl)cc2)c(=O)c2cc3cc(C)ccc3n12	·	-0.3%	-0.9
CCc1ccccc1NC(=O)c1sc2nc3c(cc2c1N)CN(Cc1ccccc1)CC3	·	6.3%	1.8
CCC(=O)N1CCc2cc(Br)cc(S(=O)(=O)NCc3ccc(Cl)cc3)c21	·	2.2%	0.9
Cc1cc(C)cc(NC(=O)CSc2oc(-c3ccco3)nc2S(=O)(=O)c2ccc(Cl)cc2)c1	·	3.3%	1.4
CC(C(=O)c1ccccc1)[n+]1ccc(Cl)c2ccc(Cl)cc21 (stereo not drawn)	·	0.2%	-0.1
Clc1ccc(/C=C/c2ccnc3ccccc23)cc1	·	-0.1%	-0.2

Bioassay records from PubChem.
